FGF22 binding: binders of recombinant human FGF22 by thermal shift | Q9HCT0 | SYPRO orange fluorescence; percent of sucrose octasulfate shift, DMSO zero | calls only at 9.99 µM | 340,000 tested, 1.5% active;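 active means melting point raised past a set limit in the mean and every replicate; three in four hits are not shown here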
Target sequence (Q9HCT0 whole entry, looked up): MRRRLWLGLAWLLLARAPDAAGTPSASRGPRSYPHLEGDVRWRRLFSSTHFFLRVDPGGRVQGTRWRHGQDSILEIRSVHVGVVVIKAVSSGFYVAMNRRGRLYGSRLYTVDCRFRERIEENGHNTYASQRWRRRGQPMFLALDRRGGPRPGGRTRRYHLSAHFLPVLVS
MLL AF4-AF9 inh: MLL-AF4/AF9 protein interaction inhibition | 350,000 tested, 0.47% active | AlphaScreen, biotin-AF4 peptide binding to FLAG-AF9 | P42568 | inhibition, % at 10 µM;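 active means every replicate reaching a set inhibition limit, whatever the replicate mean, cut at about 25% in these data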;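 further: 0% = plate neutral control median and 100% = total signal loss; the record names both 10 and 1 µM as test concentration; the first replicate is given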
Target sequence (P42568 whole entry, looked up): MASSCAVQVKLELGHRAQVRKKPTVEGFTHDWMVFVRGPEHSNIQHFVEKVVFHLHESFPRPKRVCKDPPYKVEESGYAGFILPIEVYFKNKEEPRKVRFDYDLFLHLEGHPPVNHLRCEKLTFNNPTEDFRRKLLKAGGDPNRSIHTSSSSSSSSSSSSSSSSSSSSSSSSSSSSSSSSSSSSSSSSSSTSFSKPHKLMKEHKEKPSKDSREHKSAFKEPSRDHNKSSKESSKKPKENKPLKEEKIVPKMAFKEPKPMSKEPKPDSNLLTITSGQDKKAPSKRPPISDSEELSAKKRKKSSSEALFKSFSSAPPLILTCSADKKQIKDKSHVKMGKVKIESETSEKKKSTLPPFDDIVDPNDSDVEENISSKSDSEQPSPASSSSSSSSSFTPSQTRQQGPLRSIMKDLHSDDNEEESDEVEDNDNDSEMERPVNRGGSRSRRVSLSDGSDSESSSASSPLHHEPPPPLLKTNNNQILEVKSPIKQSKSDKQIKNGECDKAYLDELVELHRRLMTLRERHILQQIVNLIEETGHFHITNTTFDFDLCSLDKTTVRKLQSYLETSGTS
* = called active by the depositor; i = inactive. A portion of the library; rates above refer to the full screens.

MLL AF4-AF9 inh | FGF22 binding | molecule
-3.8 | i | COc1ccc(S(=O)(=O)N(C)C[C@H]2OCCCC[C@H](C)Oc3ccc(NS(=O)(=O)c4cn(C)cn4)cc3C(=O)N([C@H](C)CO)C[C@H]2C)cc1
-2.6 | i | C[C@H](CO)N1C[C@H](C)[C@H](CN(C)S(=O)(=O)c2cn(C)cn2)Oc2ccc(NC(=O)CCCN(C)C)cc2CC1=O
11 | i | C[C@H](CO)N1C[C@H](C)[C@@H](CN(C)Cc2ccccc2)Oc2ccc(NC(=O)NC3CCCCC3)cc2CC1=O
-16 | i | C[C@@H]1CCCCO[C@H](CN(C)Cc2ccncc2)[C@@H](C)CN([C@H](C)CO)C(=O)c2cc(NC(=O)Nc3ccccc3)ccc2O1
-2.8 | i | CNC[C@H]1Oc2ccc(NS(C)(=O)=O)cc2CC(=O)N([C@H](C)CO)C[C@H]1C
-4.0 | i | C[C@@H]1CCCCO[C@@H](CN(C)S(=O)(=O)c2cccs2)[C@H](C)CN([C@@H](C)CO)C(=O)c2cc(NC(=O)CCC(F)(F)F)ccc2O1
2.0 | i | N#Cc1cccc(-c2ccc([C@H]3[C@@H](CO)N4CCCCN(S(=O)(=O)c5ccccc5)C[C@H]34)cc2)c1
2.7 | i | COc1ccc(NC(=O)N[C@@H]2CC[C@H](CCNS(=O)(=O)c3cccc(Cl)c3)O[C@H]2CO)cc1
-1.1 | i | Cc1ccc(S(=O)(=O)N[C@@H]2CC[C@@H](CCNC(=O)C3CCCC3)O[C@@H]2CO)cc1
-14 | i | O=C(Nc1ccccc1F)N[C@H]1CC[C@@H](CCNC(=O)C2CC2)O[C@H]1CO
-3.2 | i | CN(C)C(=O)C[C@H]1CC[C@H](NC(=O)Nc2cccc(F)c2)[C@H](CO)O1
3.3 | i | COc1ccc(S(=O)(=O)N(C)C[C@H]2OCCCC[C@@H](C)Oc3ccc(NC(=O)c4ccncc4)cc3C(=O)N([C@H](C)CO)C[C@@H]2C)cc1
-4.2 | i | C[C@@H]1CCCCO[C@H](CN(C)C(=O)NC2CCCCC2)[C@H](C)CN([C@@H](C)CO)C(=O)c2cc(NS(=O)(=O)c3ccc(F)cc3)ccc2O1
1.1 | i | O=S(=O)(c1ccc(C(F)(F)F)cc1)N1CCCc2nc(-c3ccc(Br)cc3)ccc21
3.7 | i | Cc1ccc(-c2ccc3c(c2)O[C@H](CN(C)C(=O)Nc2ccc(F)cc2)[C@@H](C)CN([C@@H](C)CO)S3(=O)=O)cc1
-0.9 | i | CO[C@H]1CN(C)C(=O)c2ccc(NC(=O)C3CCCC3)cc2OC[C@@H](C)NC[C@@H]1C
7.9 | i | C[C@H]1CCCCO[C@@H](CN(C)Cc2ccccc2)[C@@H](C)CN([C@@H](C)CO)C(=O)c2cc(NC(=O)C3CCCCC3)ccc2O1
-2.3 | i | C[C@H](CO)N1C[C@H](C)[C@H](CN(C)C(=O)Nc2ccccc2)Oc2ccc(NS(=O)(=O)c3ccc(F)cc3)cc2CC1=O
2.4 | i | CC(C)NC(=O)Nc1cccc2c1O[C@H](CN(C)Cc1ccc(C(F)(F)F)cc1)[C@@H](C)CN([C@@H](C)CO)C2=O
2.7 | i | CCCC#Cc1ccc2c(c1)O[C@H](CN(C)C(=O)CC)[C@H](C)CN([C@H](C)CO)S2(=O)=O
-8.8 | i | N#C[C@H]1[C@H](c2ccc(-c3cccnc3)cc2)[C@H](CO)N1C(=O)Nc1ccc(F)cc1
-1.9 | i | O=C(NCC[C@H]1CC[C@H](NC(=O)C2CC2)[C@H](CO)O1)c1cc(Cl)cc(Cl)c1
-0.1 | i | CC(C)NC(=O)N(C)C[C@@H]1Oc2cc(C#Cc3ccccn3)ccc2S(=O)(=O)N([C@H](C)CO)C[C@H]1C
-2.6 | i | CCCNC(=O)N1C[C@H](O)COC[C@H]2O[C@@H](CC(=O)N3CCN(C)CC3)CC[C@@H]21
3.7 | i | COc1ccccc1-c1ccc2c(c1)O[C@H](CN(C)C(=O)c1ccncc1)[C@H](C)CN([C@H](C)CO)S2(=O)=O
-2.7 | i | C[C@@H]1CCCCO[C@H](CN(C)C(=O)c2ccccc2)[C@H](C)CN([C@@H](C)CO)C(=O)c2cc(NC(=O)Nc3cccc4ccccc34)ccc2O1
1.7 | i | O=C(C[C@H]1C[C@H]2c3cc(NC(=O)Cc4ccncc4)ccc3O[C@H]2[C@@H](CO)O1)NCc1ccncc1
1.5 | i | C[C@H](CO)N1C[C@H](C)[C@H](CN(C)Cc2ccc3c(c2)OCO3)Oc2ccc(NC(=O)Nc3ccccc3)cc2C1=O
-3.1 | i | COC(=O)[C@]12C[C@H](CC(=O)NCc3cccc4ccccc34)C(=O)N(CCC3=CCCCC3)C1=C[C@H](COCc1ccccc1)O[C@@H]2C
3.1 | i | Cc1ccc(S(=O)(=O)Nc2ccc3c(c2)CC(=O)N([C@H](C)CO)C[C@H](C)[C@H](CN(C)Cc2ccccc2)O3)cc1
-1.3 | i | C[C@@H]1CN([C@H](C)CO)C(=O)Cc2cc(NC(=O)Nc3ccc4c(c3)OCO4)ccc2O[C@H]1CN(C)S(=O)(=O)c1ccc(F)cc1
0.4 | i | O=C(c1ccccn1)N1C[C@@H]2[C@H](c3ccccc31)[C@H](CO)N2C(=O)Nc1ccccc1Cl
-5.2 | i | CN(C)c1ccc2c(c1)[C@@H]1C[C@@H](CC(=O)NCc3ccccn3)O[C@H](CO)[C@@H]1O2
0.4 | i | C[C@@H]1CCCCO[C@@H](CN(C)C(=O)Nc2cccc3ccccc23)[C@H](C)CN([C@H](C)CO)C(=O)c2cc(NC(=O)Nc3ccc(C(F)(F)F)cc3)ccc2O1
-0.9 | i | O=C(Cc1ccccn1)N[C@@H]1CC[C@H](CC(=O)N2CCCCC2)O[C@H]1CO
0.7 | i | CN1C(=O)c2cc(NS(=O)(=O)c3ccc(F)cc3)ccc2OC[C@@H]2O[C@@H](CC(=O)NCC(F)(F)F)CC[C@H]21
-4.6 | i | CCC(=O)N1C[C@@H](O)COC[C@@H]2O[C@H](CC(=O)N3CCCCC3)CC[C@H]21
-1.6 | i | CNC(=O)C[C@@H]1CC[C@@H]2[C@H](COc3ccc(NC(=O)c4ccccc4Cl)cc3C(=O)N2C)O1
2.9 | i | O=C(c1ccccc1)N1CC[C@@H]2[C@@H](CO)Nc3ccc(C#Cc4cccnc4)cc3[C@@H]21
-4.5 | i | C[C@H]1CN([C@@H](C)CO)S(=O)(=O)c2ccc(C3=CCCC3)cc2O[C@@H]1CN(C)C(=O)c1ccccn1
0.7 | i | CC(C)NC(=O)Nc1cccc2c1O[C@H](CN(C)Cc1ccc(Cl)c(Cl)c1)[C@H](C)CN([C@H](C)CO)C2=O
-3.2 | i | CO[C@H]1CN(C)C(=O)c2ccc(NC(C)=O)cc2OC[C@@H](C)N(Cc2ccccn2)C[C@@H]1C
-1.0 | i | O=C(C[C@H]1CC[C@@H]2NC[C@H](O)COC[C@H]2O1)Nc1ccccc1
-2.1 | i | Cc1ccc(S(=O)(=O)N[C@@H]2C=C[C@H](CC(=O)NCCc3ccncc3)O[C@H]2CO)cc1
-1.9 | i | COc1ccc(S(=O)(=O)N(C)C[C@@H]2OCCCC[C@H](C)Oc3ccc(NS(=O)(=O)c4ccc(F)cc4)cc3C(=O)N([C@@H](C)CO)C[C@H]2C)cc1
0.1 | i | COc1ccccc1-c1cn(CC[C@@H]2CC[C@@H](NC(=O)Cc3ccccn3)[C@@H](CO)O2)nn1
-2.0 | i | CC(C)NC(=O)Nc1ccc2c(c1)CC(=O)N([C@@H](C)CO)C[C@@H](C)[C@H](CN(C)CC1CC1)O2
-8.7 | i | O=C(C[C@@H]1C[C@@H]2c3cc(NC(=O)NC4CCCCC4)ccc3O[C@@H]2[C@@H](CO)O1)NC1CCCC1
-0.8 | i | Cc1ccc(-c2cnc3c(c2)C(=O)N([C@H](C)CO)C[C@H](C)[C@H](CN(C)C(=O)c2cccnc2)O3)cc1
-0.8 | i | CCCC(=O)Nc1ccc2c(c1)C(=O)N(C)C[C@@H](OC)[C@H](C)CN(C(=O)CC1CC1)[C@H](C)CO2
3.7 | i | Cc1ccc(NC(=O)Nc2ccc3c(c2)C(=O)N(C)[C@@H]2CC[C@H](CC(=O)NCC(F)(F)F)O[C@@H]2CO3)cc1
-1.1 | i | O=C(C[C@H]1C=C[C@@H](NC(=O)Nc2cccc(F)c2)[C@H](CO)O1)NCC1CC1
0.8 | i | C[C@H]1CN([C@@H](C)CO)C(=O)c2cccc(NC(=O)Nc3ccccc3)c2O[C@H]1CN(C)Cc1ccccc1
-3.0 | i | CC(C)NC(=O)N(C)C[C@H]1Oc2cc(-c3ccncc3)ccc2S(=O)(=O)N([C@H](C)CO)C[C@H]1C
-1.8 | i | COc1cccc(C(=O)Nc2ccc3c(c2)OC[C@H](C)N(C(C)=O)C[C@H](C)[C@H](OC)CN(C)C3=O)c1
-1.0 | i | Cc1cccc(S(=O)(=O)N[C@H]2CC[C@@H](CCNC(=O)c3cnccn3)O[C@H]2CO)c1
-0.9 | i | C[C@H]1CN([C@@H](C)CO)C(=O)c2cc(NC(=O)Nc3ccc(F)cc3)ccc2O[C@@H]1CN(C)C
3.3 | i | COc1ccc(S(=O)(=O)N(C)C[C@@H]2OCCCC[C@H](C)Oc3ccc(NC(=O)NC(C)C)cc3C(=O)N([C@@H](C)CO)C[C@@H]2C)cc1
1.9 | i | C/C=C/c1ccc([C@@H]2[C@@H](CO)N(C(=O)c3ccccc3)C23CN(C(C)=O)C3)cc1
-1.0 | i | CO[C@@H]1CN(C)C(=O)c2ccc(NC(=O)Nc3c(C)noc3C)cc2OC[C@H](C)N(C)C[C@H]1C

New compounds follow.
MLL AF4-AF9 inh | FGF22 binding | molecule
2.2 | i | CCCC#Cc1ccc([C@H]2[C@H]3CN(C(=O)Nc4cccc(F)c4)CC(=O)N3[C@H]2CO)cc1
-0.4 | i | C[C@H]1CN([C@@H](C)CO)C(=O)c2cc(C#CC3(O)CCCC3)cnc2O[C@@H]1CN(C)C(=O)Cc1cccnc1
-2.4 | i | O=C(c1ccc(F)cc1)N1CC(=O)N2[C@H](C1)[C@@H](c1ccc(-c3cccnc3)cc1)[C@@H]2CO
1.3 | i | Cc1ccc(S(=O)(=O)N(C)C[C@H]2OCCCC[C@@H](C)Oc3ccc(NC(=O)Nc4ccccc4)cc3C(=O)N([C@@H](C)CO)C[C@H]2C)cc1
2.9 | i | O=C1CN(Cc2ccccc2)C[C@@H]2[C@@H](c3ccc(Br)cc3)[C@H](CO)N12
-5.5 | i | C[C@H](CO)N1C[C@H](C)[C@@H](CN(C)Cc2ccccc2)OCCCC[C@H](C)Oc2ccc(NC(=O)NC3CCCCC3)cc2C1=O
1.6 | i | O=C(Cc1ccccc1)N1CC[C@@H]2[C@H](CO)Nc3ccc(C4=CCCCC4)cc3[C@@H]21
1.8 | i | COc1ccc(NC(=O)N(C)C[C@@H]2OCCCC[C@@H](C)Oc3ccc(NC(=O)c4ccccc4)cc3C(=O)N([C@@H](C)CO)C[C@@H]2C)cc1
2.9 | i | C[C@@H]1CN([C@@H](C)CO)C(=O)c2cccc(NC(=O)NC3CCCCC3)c2O[C@H]1CN(C)C(=O)Nc1ccc2c(c1)OCO2
0.9 | i | CC(C)CC#Cc1cnc2c(c1)C(=O)N([C@H](C)CO)C[C@H](C)[C@H](CN(C)C(=O)Nc1ccccc1F)O2
0.3 | i | C[C@@H]1CN([C@@H](C)CO)C(=O)c2cc(NC(=O)Cc3cn(C)c4ccccc34)ccc2O[C@@H]1CN(C)C(=O)Nc1ccc(F)cc1
1.2 | i | COc1ccccc1CNC(=O)C[C@H]1C[C@H]2c3cc(NC(=O)NC4CCCC4)ccc3O[C@H]2[C@@H](CO)O1
9.1 | i | C[C@H]1CN([C@@H](C)CO)C(=O)c2cc(/C=C/c3ccccc3)cnc2O[C@H]1CN(C)C(=O)Nc1ccc(C(F)(F)F)cc1
-13 | i | CC(C)NC(=O)N1CC[C@@H]2[C@H]1c1cc(Br)ccc1N(C)[C@H]2CO
-3.1 | i | C[C@H]1CN([C@@H](C)CO)C(=O)c2cc(NS(=O)(=O)c3cn(C)cn3)ccc2O[C@@H]1CN(C)CC1CC1
-0.6 | i | C[C@@H]1CN([C@H](C)CO)C(=O)c2cc(C#CC3(O)CCCC3)cnc2O[C@@H]1CN(C)S(=O)(=O)c1ccccc1
-3.2 | i | CNC[C@H]1Oc2ncc(C#CC3CCCC3)cc2C(=O)N([C@@H](C)CO)C[C@H]1C
-2.7 | i | CNC[C@@H]1Oc2ncc(Br)cc2C(=O)N([C@H](C)CO)C[C@@H]1C

Part of the list above in order of number of heavy atoms, lowest first:
MLL AF4-AF9 inh | FGF22 binding | molecule
-2.7 | i | CNC[C@@H]1Oc2ncc(Br)cc2C(=O)N([C@H](C)CO)C[C@@H]1C
2.9 | i | O=C1CN(Cc2ccccc2)C[C@@H]2[C@@H](c3ccc(Br)cc3)[C@H](CO)N12
-3.2 | i | CNC[C@H]1Oc2ncc(C#CC3CCCC3)cc2C(=O)N([C@@H](C)CO)C[C@H]1C
-2.4 | i | O=C(c1ccc(F)cc1)N1CC(=O)N2[C@H](C1)[C@@H](c1ccc(-c3cccnc3)cc1)[C@@H]2CO
-3.1 | i | C[C@H]1CN([C@@H](C)CO)C(=O)c2cc(NS(=O)(=O)c3cn(C)cn3)ccc2O[C@@H]1CN(C)CC1CC1
1.2 | i | COc1ccccc1CNC(=O)C[C@H]1C[C@H]2c3cc(NC(=O)NC4CCCC4)ccc3O[C@H]2[C@@H](CO)O1
-0.4 | i | C[C@H]1CN([C@@H](C)CO)C(=O)c2cc(C#CC3(O)CCCC3)cnc2O[C@@H]1CN(C)C(=O)Cc1cccnc1
2.9 | i | C[C@@H]1CN([C@@H](C)CO)C(=O)c2cccc(NC(=O)NC3CCCCC3)c2O[C@H]1CN(C)C(=O)Nc1ccc2c(c1)OCO2
0.3 | i | C[C@@H]1CN([C@@H](C)CO)C(=O)c2cc(NC(=O)Cc3cn(C)c4ccccc34)ccc2O[C@@H]1CN(C)C(=O)Nc1ccc(F)cc1
1.3 | i | Cc1ccc(S(=O)(=O)N(C)C[C@H]2OCCCC[C@@H](C)Oc3ccc(NC(=O)Nc4ccccc4)cc3C(=O)N([C@@H](C)CO)C[C@H]2C)cc1
